GIRK2 act = GIRK2 channel activation. HEK293-GIRK2 thallium flux, Thallos fluorescence. calls only for hits at 25 µM. actives 0.05% (n = 63,000). AID 1259325;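 active = among the strongest 0.2% of first-round signals and kept after retests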;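 also: first round at about 10 µM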
Target sequence (P48051 whole entry, looked up): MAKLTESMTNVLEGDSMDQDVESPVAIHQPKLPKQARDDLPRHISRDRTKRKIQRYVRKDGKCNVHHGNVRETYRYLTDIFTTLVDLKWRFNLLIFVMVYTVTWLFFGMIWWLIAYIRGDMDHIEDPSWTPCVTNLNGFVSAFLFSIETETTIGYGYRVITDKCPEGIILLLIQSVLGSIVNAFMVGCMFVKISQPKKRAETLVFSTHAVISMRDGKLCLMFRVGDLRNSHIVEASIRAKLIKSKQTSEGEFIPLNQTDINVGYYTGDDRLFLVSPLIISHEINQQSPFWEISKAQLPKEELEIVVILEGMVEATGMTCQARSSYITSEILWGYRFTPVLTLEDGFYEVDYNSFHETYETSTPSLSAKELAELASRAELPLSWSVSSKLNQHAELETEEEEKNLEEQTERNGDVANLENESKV
Calls only; i = inactive. An excerpt. The share of hits here may be higher or lower than overall.

SMILES	GIRK2 act
O=C(Nc1ccc(Cn2cnc(C(=O)Nc3cccc(F)c3)c2)cc1)c1ccc(Cl)cc1	i
O=C(NCc1cc(-c2ccncc2)n(C2CCCC2)n1)Nc1ccc2c(c1)OCO2	i
O=C(CCc1csc(NC(=O)c2ccc[nH]c2=O)n1)Nc1nc(-c2ccco2)cs1	i
COc1nn(C)cc1C(=O)Nc1nc2c(s1)CN(S(C)(=O)=O)CC2	i
Cc1c(C)n2c3c(=O)n(CCCO)c(=O)n(C)c3nc2n1CCc1ccccc1	i
COc1ccc2nc(SCc3ccccc3OC)[nH]c2c1	i
COc1ccc(-n2nnnc2SCC(=O)Nc2ccc(S(N)(=O)=O)cc2)cc1	i
COc1ccc(F)cc1S(=O)(=O)NCc1cc(-c2ccncc2)n(C2CCCC2)n1	i
CC(=O)NCC#CCOc1cccc(C(F)(F)F)c1	i
O=C(C1CC=CCC1)N(Cc1ccccn1)Cc1ccco1 (centres undefined)	i
CCOc1ccc2ccccc2c1C(=O)NCCc1nc(C2CC2)cc(C(F)(F)F)n1	i
O=C(CSc1ccc(F)cc1)N1CCN(CCn2ccnc2-c2ccccc2)CC1	i
COc1cc(OC)c(NC(=O)CSc2nccc(N3CCCCC3)n2)cc1Cl	i
CCCS(=O)(=O)c1ccc(N2CCN(Cc3ccccc3)CC2)nn1	i
CSc1ccccc1NC(=O)C(=O)NCC1(CO)CC1	i
Cc1c(C(=O)N(C)c2ccccc2)nnn1-c1ccc2noc(-c3ccc(Cl)cc3)c2c1	i
CCOc1cc(C2NC(=S)NC(C)=C2C(=O)Nc2ccc(C)c(C)c2)ccc1O (centres undefined)	i
COc1ccc(SCCCC(=O)Nc2ccc(OC)cc2[N+](=O)[O-])cc1	i
COC(=O)c1ccc(NC(=O)Cn2c(C)cc(C)c(-c3nc(-c4cccc(Cl)c4)no3)c2=O)cc1	i
COc1ccccc1N1CCn2c1nc1c2c(=O)n(CC(=O)O)c(=O)n1C	i
Cc1ccc2sc(NC(=O)NCc3cccs3)nc2c1C	i
CCOc1cccc2sc(-n3nc(C)cc3NC(=O)CN3C(=O)CCC3=O)nc12	i
O=C(NCCc1ccsc1)c1cc(-c2cccs2)[nH]n1	i
CCOC(=O)CCn1c(=O)c2c(nc3n(-c4cc(OC)ccc4OC)c(C)c(C)n23)n(C)c1=O	i
O=C(NCc1ccco1)c1ccc(NS(=O)(=O)c2cccc(C(F)(F)F)c2)cc1	i
O=C(CCc1csc(NC(=O)Nc2cccc(Cl)c2)n1)NCCC1=CCCCC1	i
O=C(NCC(O)(c1ccccc1)C(F)(F)F)Nc1cccs1 (centres undefined)	i
COc1ccc(OC)c(COCC(O)CNC(C)(C)CO)c1 (centres undefined)	i
O=C(c1cn(-c2cc(N3CCSCC3)ncn2)cn1)N1CCOCC1	i
C=CCN1C(=O)SC(CC(=O)Nc2ccccc2C)C1=O (centres undefined)	i
O=C(O)CC1=C/C(=C\c2ccc3cccnc3c2)c2ccc(F)cc21	i
CCc1noc(-c2ccc(=O)n(CC(=O)Nc3c(C)cc(C)cc3C)c2)n1	i
O=C1CCC(C(=O)N2CCN(c3cc(-n4cccc4)ncn3)CC2)N1 (centres undefined)	i
CCOc1ccc(NC(=O)Cn2nc3c(Oc4ccc(C)cc4)nccn3c2=O)cc1	i
COc1ccc(CCC(=O)Nc2nnc(-c3cc(C)cs3)o2)cc1	i
CCc1ccc(-n2ncc3c(=O)n(Cc4nc(-c5ccc(OC)c(OC)c5)no4)cnc32)cc1	i
O=C(Cc1ccccc1)N(CCn1cccn1)c1nc2c(Cl)cccc2s1	i
COc1ccc(NC(=O)COc2cc(C)nc(N3CCN(c4ccccc4)CC3)n2)cc1	i
CCOc1ccc(C(=O)N2CCN(C(=O)C3CC3c3ccc(F)cc3)CC2)cc1 (centres undefined)	i
O=C1CCSCC(C(=O)N2CCN(c3ccc(Cl)cc3)CC2)N1 (centres undefined)	i
COc1ccc2nc(N(CCN3CCOCC3)C(=O)CCc3ccccc3)sc2c1	i
CCn1cnc2c(-c3ccccc3)cn(CC(=O)Nc3ccc4c(c3)OCO4)c2c1=O	i
CS(=O)(=O)c1cccc2sc(N3CCN(C(=O)C(c4ccccc4)c4ccccc4)CC3)nc12	i
CCC(=O)Nc1ccc(SCC(=O)Nc2nnc(CC)s2)nn1	i
COc1ccc(-c2noc(CC(N)=S)n2)cc1	i
CC(C)c1noc(C2CC(=O)N(Cc3cccs3)C2)n1 (centres undefined)	i
Cc1cccc(-c2csc3c(=O)[nH]c(N4CCC(C(=O)NC5CCCCCC5)CC4)nc23)c1	i
O=C(Nc1cccc(F)c1)c1csc(Cc2nc(-c3ccccc3Cl)no2)n1	i
CCc1ccc(NC(=O)CSc2nc3ncccc3c(=O)n2Cc2ccc(F)cc2)cc1	i
CCSc1ccccc1C(=O)N1CCC(c2nnc(-c3ccco3)o2)CC1	i
COc1ccccc1C(=O)NC1CCN(C(=O)c2cc(-c3ccccc3C)n[nH]2)CC1	i
COc1ccccc1-c1cn[nH]c1-c1ccc(O)cc1O	i
CCOC(=O)N1CCN(c2ncc3c(=O)n(-c4ccccc4)c(=O)[nH]c3n2)CC1	i
Cc1cc(NC(=O)c2cc3ccccc3o2)n(-c2nc3ccccc3s2)n1	i
Cc1c(C)n2c3c(=O)n(CC(=O)OCc4ccccc4)c(=O)n(C)c3nc2n1-c1ccccc1	i
O=C(NCC1COC2(CCCC2)O1)C(=O)Nc1cccc(Cl)c1 (centres undefined)	i
COc1ccc(NC(=O)CCc2c(C)[nH]c(=O)n(C)c2=O)cc1Cl	i
COc1cc(OC)c(N2C=C(C#N)S(=O)(=O)c3ccc(F)cc32)cc1Cl	i
O=C(NCCc1c[nH]c2ccccc12)C1CCCN(c2nc3c(-c4ccccc4)csc3c(=O)[nH]2)C1 (centres undefined)	i
CCCCS(=O)(=O)N1CCCC(c2nnc(-c3cccs3)o2)C1 (centres undefined)	i

Next section:
SMILES	GIRK2 act
c1cn(CCCNc2nc(N3CCOCC3)c3n[nH]nc3n2)cn1	i
CCN1CCN(CC(=O)Nc2ccc(C)cc2C)C(=O)C1=O	i
CCN(CC)C(=O)Oc1ccc2c(c1)O/C(=C\c1ccc3c(c1)OCO3)C2=O	i
CCNC(=O)c1cc2c(=O)n3cc(C)ccc3nc2n1C	i
COc1ccc2nc(-n3nc(C)cc3NC(=O)c3cccc(F)c3)sc2c1	i
Cc1cccc2sc(N(CCCn3ccnc3)C(=O)c3ccc(F)cc3)nc12	i
COc1ccc(NC(=O)Cc2c(C)nc(SC(C)c3ccccc3)[nH]c2=O)c(OC)c1 (centres undefined)	i
Cc1nc2sc(C)c(C)n2c(=O)c1NC(=O)Cc1ccc(F)cc1	i
O=C(NCC1CCN(C(=O)COc2ccccc2)CC1)C(=O)NCC(F)(F)F	i
Cc1ccc(-c2ccc(=O)n(Cc3nc(-c4ccc(Cl)cc4)no3)n2)cc1C	i
CC(C)c1cc(=O)[nH]c(-n2nc(C3CC3)cc2NC(=O)Cc2cccs2)n1	i
Cc1cc(C)nc(Nc2nc(C(=O)N3CCN(S(C)(=O)=O)CC3)cs2)n1	i
COc1ccc(C)cc1NC(=O)COc1cc(C)nc(N2CCCC2)n1	i
CC(O)CNc1nc2c(c(=O)[nH]c(=O)n2C)n1CCOc1ccccc1 (centres undefined)	i
Cc1cc(C(F)(F)F)nc(CCNC(=O)c2cccn(C)c2=O)n1	i
O=C(CCn1c(=O)oc2ccc(Cl)cc21)Nc1cccc(Cl)c1	i
CCSc1nnc(NC(=O)C2CCCN(Cc3nc(-c4ccncc4)no3)C2)s1 (centres undefined)	i
Cc1cc(C)n(-c2nc3c(c(=O)n2CC(=O)N(C)c2ccccc2)CCC3)n1	i
O=C(NCC(O)c1ccoc1)c1ccc(-c2ccccc2)cc1 (centres undefined)	i
COc1ccc(NC(=O)Nc2nc(CCC(=O)Nc3ccc(C(C)C)cc3)cs2)cc1	i
CC(CCc1ccccc1)NC(=O)c1cc(=O)c(OCc2ccccc2)co1 (centres undefined)	i
Cc1nc(-c2nnc(NC(=O)CCCS(=O)(=O)c3ccc(Cl)cc3)o2)cs1	i
Cc1noc(C2CC(=O)N(c3cccc4c3CCCC4)C2)n1 (centres undefined)	i
Cc1nc(C)c(C(=O)C2=C(O)C(=O)N(CCCN(C)C)C2c2cccnc2)s1 (centres undefined)	i
O=S(=O)(Cc1ccccc1)NCC#CCN1CCOCC1	i
O=C(Cn1cc(S(=O)(=O)N2CCOCC2)ccc1=O)Nc1ccc2c(c1)OCCO2	i
COc1ccccc1COc1cc(NC(=O)Cn2cnc3ccccc3c2=O)ncn1	i
CCCN1C[C@H](CSC)C[C@@H]2c3cccc4[nH]cc(c34)C[C@H]21	i
COc1ccccc1C1(CNS(=O)(=O)c2cccs2)CCOCC1	i
O=C(NCCC(O)c1cccc2ccccc12)c1ccc(Cl)s1 (centres undefined)	i

Five entries picked at random from those above:
SMILES	GIRK2 act
COc1ccccc1C1(CNS(=O)(=O)c2cccs2)CCOCC1	i
CCSc1nnc(NC(=O)C2CCCN(Cc3nc(-c4ccncc4)no3)C2)s1 (centres undefined)	i
O=C(Cn1cc(S(=O)(=O)N2CCOCC2)ccc1=O)Nc1ccc2c(c1)OCCO2	i
O=S(=O)(Cc1ccccc1)NCC#CCN1CCOCC1	i
Cc1nc(-c2nnc(NC(=O)CCCS(=O)(=O)c3ccc(Cl)cc3)o2)cs1	i

Another view of two compounds above:
SMILES,GIRK2 act
O=C(CCn1c(=O)oc2ccc(Cl)cc21)Nc1cccc(Cl)c1,i
CCSc1nnc(NC(=O)C2CCCN(Cc3nc(-c4ccncc4)no3)C2)s1 (centres undefined),i

Going on with the list.
SMILES	GIRK2 act
O=C(Cn1cnc2c([nH]c3ccc(Br)cc32)c1=O)N1CCN(c2ccccn2)CC1	i
O=C(COc1ccc2c(c1)OCO2)NCCCn1ncccc1=O	i
Cc1nn(-c2ccccc2)c(OC(=O)CCc2ccccc2)c1S(=O)(=O)c1ccccc1	i
Cc1ccc(C(=O)NC(=S)N2CCNC(=O)C2CC(=O)OC(C)C)cc1Br (centres undefined)	i
COc1ccc(S(=O)(=O)NCc2cc(-c3cccs3)n(C3CCCC3)n2)cc1OC	i
COc1ccccc1OCC#CCNC(=O)C1(c2cccs2)CCCC1	i
COc1ccc(CCC(=O)N2CCN(c3ccc(-n4ccnc4)nn3)CC2)cc1	i
Cn1c(C(F)(F)F)nn(CCNS(=O)(=O)C2CC2)c1=O	i
O=C(c1cnn2c1OCCC2)N1CCN(C(=O)C2CCCO2)CC1 (centres undefined)	i
COC(=O)CSc1nnc(-c2cccc(S(=O)(=O)N3CCCC3)c2)o1	i
CC(C)C(=O)Nc1ccc(S(=O)(=O)Nc2ccc3c(c2)CCCN3C(=O)c2ccccc2)cc1	i
COc1ccccc1CNC(=O)c1ccc(Oc2nccnc2N2CCOCC2)cc1	i
Cc1nc2sc(C)c(C)n2c(=O)c1NC(=O)c1ccc(S(=O)(=O)N2CCCC2)cc1	i
COc1cccc(C(=O)Oc2c(S(=O)(=O)c3ccccc3)c(C)nn2C(C)(C)C)c1OC	i
COc1cc(O)c2c(=O)c(O[C@@H]3O[C@@H](CO)[C@H](O)[C@H]3O[C@@H]3O[C@@H](C)[C@H](O)[C@@H](O)[C@H]3O)c(-c3ccc(O)cc3)oc2c1	i

Reformatted field by field: entries from further up.
CC(C)c1cc(=O)[nH]c(-n2nc(C3CC3)cc2NC(=O)Cc2cccs2)n1
- GIRK2 act = i
Cc1cc(C)nc(Nc2nc(C(=O)N3CCN(S(C)(=O)=O)CC3)cs2)n1
- GIRK2 act = i
COc1ccc(C)cc1NC(=O)COc1cc(C)nc(N2CCCC2)n1
- GIRK2 act = i
CC(O)CNc1nc2c(c(=O)[nH]c(=O)n2C)n1CCOc1ccccc1 (centres undefined)
- GIRK2 act = i

Further structures follow:
SMILES	GIRK2 act
Cc1cc(C(=O)N2CCC(Oc3ccc(C(F)(F)F)cn3)CC2)c(C)o1	i
CSCC(C)(O)CNC(=O)COc1ccc(Cl)cc1Cl (centres undefined)	i
O=C(CCc1csc2nc(C3CC3)cn12)N1CCN(c2ccccc2F)CC1	i
COc1cccc(Cn2cc(C(=O)c3ccccc3)c(=O)c3cc4c(cc32)OCCO4)c1	i
CN(C1CCCC1)S(=O)(=O)c1ccc(C(=O)Nc2ccc3c(c2)OCCO3)cc1	i
O=C1CCSCC(C(=O)Nc2nc(-c3cccnc3)cs2)N1 (centres undefined)	i
O=C(c1cncc(Br)c1)N1CC(Oc2nc3ccccc3s2)C1	i
O=C(CSc1cc(NCc2ccccc2Cl)ncn1)N1CCCC1	i
Cc1cccc(-c2csc3c(=O)[nH]c(N4CCC(C(=O)NCC(C)c5ccccc5)CC4)nc23)c1 (centres undefined)	i
CCc1ccc(-n2ncc(C(=O)N3CCC4(CC3)OCCO4)c2-n2cccc2)cc1	i
CCC(C)NC(=O)Cn1cnc2c([nH]c3cc(OC)c(OC)cc32)c1=O (centres undefined)	i
COc1ccc(OC)c(/C=C/C(=O)Nc2cc(OC)ccc2OC)c1	i
Cc1noc(C)c1CN1CCN(C(=O)c2cc(=O)c3ccccc3o2)CC1	i
CN1CCc2c(sc(NC(=O)c3ccco3)c2-c2nc3ccccc3s2)C1	i
CCCCOc1ccc(N2CC(O)=C(c3nc4ccccc4[nH]3)C2=N)cc1	i
CCCCn1c(=O)c2c(nc3n2CCCN3c2cc(OC)ccc2OC)n(C)c1=O	i
COc1ccc(OC)c2sc(N3CCN(C(=O)Nc4ccccc4)CC3)nc12	i
O=C(NCC(O)c1ccoc1)c1ccc2nsnc2c1 (centres undefined)	i
CNC(=O)/C(C#N)=C1/SC(Cc2ccc(OC)cc2)C(=O)N1c1cccc2ccccc12 (centres undefined)	i
CC(=O)N1N=C(c2ccc(Br)cc2)CC1c1ccc(C)o1 (centres undefined)	i
N#CC(=C(/N)Sc1ccccc1N)/C(C#N)=C(\N)Sc1ccccc1N	i
CN(C)C[C@H]1CCn2c(c(C3=C(c4cn(C)c5ccccc45)C(=O)NC3=O)c3ccccc32)C1	i

Screening results from PubChem BioAssay.
